Screens deposited in PubChem BioAssay by National Center for Advancing Translational Sciences (NCATS).
Vaccinia Venus: qHTS for Stage-Specific Inhibitors of Vaccinia Orthopoxvirus: Venus Reporter Primary qHTS; Vaccinia virus Venus reporter expression, fluorescence; Potency, µM (titrated, usually from 36.5 µM), for the others: top-dose activity change, negative = inhibition, usual class: inhibitors; 330,000 compounds, 0.46% hits; active means well fitted inhibition curve with a large enough effect; inconclusive means small, poorly fitted or top-dose-only effect; inactive means no such curve, though single readings can be large or run the other way; tested in A549 cells; further: nearly all actives have a fitted effect of over 30% in size; inactives centre near -10
VACV mCherry inh: qHTS for Stage-Specific Inhibitors of Vaccinia Orthopoxvirus: mCherry Reporter Primary qHTS | Potency, µM (highest dose often 36.5 µM), for inactives: top-dose activity change, negative = inhibition, most hits filed as inhibitors | 310,000 compounds, 0.63% hits | Vaccinia virus mCherry reporter infection, fluorescence; about a quarter of the inactives have no number | AID 720579, 2013; active = well fitted inhibition curve with a large enough effect; inconclusive = small, poorly fitted or top-dose-only effect; inactive = no such curve, though single readings can be large or run the other way; tested in A549 cells; further: nearly all actives have a fitted effect of over 35% in size; inactives centre near -10
Numbers without * were called inactive; i = inactive; ? = inconclusive; . = not tested or not shown; [ ] = another dose, or the depositor's remark. On the % scale 0 is the no-effect control and ±100 the full control effect; potency means the concentration at half of the fitted maximal effect.

Start of the listing, in advance, 13 compounds:
[1] Cc1cn2c(nc1=O)OC1C(O)C(COC(=O)c3ccccc3)OC12 (stereo not drawn)
  Vaccinia Venus: -5%
  VACV mCherry inh: -12%
[2] O=C(NCc1nnc2n1CCN(Cc1ccc(C(F)(F)F)cc1)CC2)c1ccccn1
  Vaccinia Venus: 4%
  VACV mCherry inh: -5%
[3] COc1ccc(/C=C(/NC(=O)c2ccccc2)C(=O)N2CCCC2)cc1OC
  Vaccinia Venus: -10%
  VACV mCherry inh: i
[4] Cc1nc([N+](=O)[O-])c(Sc2nc3ccc([N+](=O)[O-])cc3[nH]2)n1Cc1ccccc1
  Vaccinia Venus: ?
  VACV mCherry inh: ?
[5] CCOC(=O)C1(C)CCN1C(=O)c1c(F)cccc1F (stereo not drawn)
  Vaccinia Venus: -8%
  VACV mCherry inh: 35%[activator]
[6] C#CCSc1nccc(-c2nn(-c3ccc(C)cc3)ccc2=O)n1
  Vaccinia Venus: ?
  VACV mCherry inh: ?
[7] CSc1nc(C)c2c(n1)N(c1cccc(C)c1)CC2
  Vaccinia Venus: -30%
  VACV mCherry inh: .
[8] CCOC(=O)c1cccc(NC(=O)CC2C(=O)N(c3ccc(F)cc3)C(=O)N2Cc2cccc(OC)c2)c1 (stereo not drawn)
  Vaccinia Venus: -8%
  VACV mCherry inh: -6%
[9] C=CCn1c(CC(=O)OC)csc1=Nc1ccc(C(C)=O)cc1
  Vaccinia Venus: -14%
  VACV mCherry inh: -14%
[10] COc1cccc(/C=N/Nc2nnc(C)n2N)c1OCc1ccccc1Cl
  Vaccinia Venus: -5%
  VACV mCherry inh: i
[11] CC1CCCCN1CCNC(=O)c1ccc2c(=O)n(Cc3ccc(Cl)cc3)c(=S)[nH]c2c1 (stereo not drawn)
  Vaccinia Venus: ?
  VACV mCherry inh: -14%
[12] COc1ccc(N(CC(=O)Nc2cccc(SC)c2)S(C)(=O)=O)cc1Cl
  Vaccinia Venus: ?
  VACV mCherry inh: -15%

[13] CCOc1ccc2nc(SCC(=O)Nc3ccc(F)cc3)nc(-c3ccccc3)c2c1
  Vaccinia Venus: -19%
  VACV mCherry inh: -25%

The whole of this part, previewed entries included:
[1] Cc1cn2c(nc1=O)OC1C(O)C(COC(=O)c3ccccc3)OC12 (stereo not drawn)
  Vaccinia Venus: -5%
  VACV mCherry inh: -12%
[2] O=C(NCc1nnc2n1CCN(Cc1ccc(C(F)(F)F)cc1)CC2)c1ccccn1
  Vaccinia Venus: 4%
  VACV mCherry inh: -5%
[3] COc1ccc(/C=C(/NC(=O)c2ccccc2)C(=O)N2CCCC2)cc1OC
  Vaccinia Venus: -10%
  VACV mCherry inh: i
[4] Cc1nc([N+](=O)[O-])c(Sc2nc3ccc([N+](=O)[O-])cc3[nH]2)n1Cc1ccccc1
  Vaccinia Venus: ?
  VACV mCherry inh: ?
[5] CCOC(=O)C1(C)CCN1C(=O)c1c(F)cccc1F (stereo not drawn)
  Vaccinia Venus: -8%
  VACV mCherry inh: 35%[activator]
[6] C#CCSc1nccc(-c2nn(-c3ccc(C)cc3)ccc2=O)n1
  Vaccinia Venus: ?
  VACV mCherry inh: ?
[7] CSc1nc(C)c2c(n1)N(c1cccc(C)c1)CC2
  Vaccinia Venus: -30%
  VACV mCherry inh: .
[8] CCOC(=O)c1cccc(NC(=O)CC2C(=O)N(c3ccc(F)cc3)C(=O)N2Cc2cccc(OC)c2)c1 (stereo not drawn)
  Vaccinia Venus: -8%
  VACV mCherry inh: -6%
[9] C=CCn1c(CC(=O)OC)csc1=Nc1ccc(C(C)=O)cc1
  Vaccinia Venus: -14%
  VACV mCherry inh: -14%
[10] COc1cccc(/C=N/Nc2nnc(C)n2N)c1OCc1ccccc1Cl
  Vaccinia Venus: -5%
  VACV mCherry inh: i

[11] CC1CCCCN1CCNC(=O)c1ccc2c(=O)n(Cc3ccc(Cl)cc3)c(=S)[nH]c2c1 (stereo not drawn)
  Vaccinia Venus: ?
  VACV mCherry inh: -14%
[12] COc1ccc(N(CC(=O)Nc2cccc(SC)c2)S(C)(=O)=O)cc1Cl
  Vaccinia Venus: ?
  VACV mCherry inh: -15%
[13] CCOc1ccc2nc(SCC(=O)Nc3ccc(F)cc3)nc(-c3ccccc3)c2c1
  Vaccinia Venus: -19%
  VACV mCherry inh: -25%
[14] C=CCOc1ccc(Cl)cc1C(=O)O
  Vaccinia Venus: -13%
  VACV mCherry inh: -11%
[15] COCCCN1C(=O)C(=O)/C(=C(/O)c2ccc(OC(C)C)cc2)C1c1cccnc1 (stereo not drawn)
  Vaccinia Venus: 6%
  VACV mCherry inh: .
[16] COc1ccccc1CN(C)C(=O)C(NC(=O)Cc1cccc2ccccc12)C(C)C (stereo not drawn)
  Vaccinia Venus: -7%
  VACV mCherry inh: i
[17] CCCCNC(=O)C1CC(c2c(Cl)cccc2Cl)=NO1 (stereo not drawn)
  Vaccinia Venus: -26%
  VACV mCherry inh: -5%
[18] CC(=O)Nc1ccc(-c2csc(NC(=O)CCNC(=O)c3ccco3)n2)cc1
  Vaccinia Venus: 24%
  VACV mCherry inh: i
[19] CO/N=C/C(=N\Nc1ccc(C)cc1)C(=O)c1ccc(OC)cc1
  Vaccinia Venus: ?
  VACV mCherry inh: .
[20] c1ccc(-c2cccs2)nc1
  Vaccinia Venus: 4%
  VACV mCherry inh: i

[21] O=C(CSc1nnnn1-c1ccccc1)NCc1ccco1
  Vaccinia Venus: -1%
  VACV mCherry inh: -5%
[22] CCCc1[nH]nc2c1C(c1ccc(Br)s1)C(C#N)=C(N)O2 (stereo not drawn)
  Vaccinia Venus: -1%
  VACV mCherry inh: -28%
[23] O=C(NCCOc1ccc(F)cc1)C1CCC(=O)N(Cc2ccc(Cl)cc2)C1 (stereo not drawn)
  Vaccinia Venus: -25%
  VACV mCherry inh: i
[24] S=C(NCCc1ccncc1)Nc1ccccc1
  Vaccinia Venus: -1%
  VACV mCherry inh: -11%
[25] O=C(CCC(=O)NNC(=O)c1ccc([N+](=O)[O-])cc1)NCc1ccccc1
  Vaccinia Venus: -8%
  VACV mCherry inh: -15%
[26] O=C(NC(=S)NCCN1CCOCC1)c1ccccc1Br
  Vaccinia Venus: 4%
  VACV mCherry inh: -11%
[27] CCOc1ccccc1NC(=O)CCNC(=O)N1CC(=O)Nc2ccccc21
  Vaccinia Venus: -4%
  VACV mCherry inh: -1%
[28] CCOC(=O)C1=C(COC(=O)c2cc(OC)c(OC)c(OC)c2)NC(=O)NC1C (stereo not drawn)
  Vaccinia Venus: -17%
  VACV mCherry inh: i
[29] COC(=O)COc1ccc(C2Nc3c(Cl)ccc(C(=O)O)c3C3C=CCC32)cc1 (stereo not drawn)
  Vaccinia Venus: 7%
  VACV mCherry inh: 2%
[30] Cc1cc(=O)[nH]c2c1c(-c1ccccc1)nn2C
  Vaccinia Venus: -17%
  VACV mCherry inh: -2%

[31] Cc1ccc(-c2c[n+](=O)c3c(n2[O-])CCC3)cc1
  Vaccinia Venus: -5%
  VACV mCherry inh: -14%
[32] CCC1CN(CCNC(=O)c2cc3ccccc3oc2=O)Cc2cc(OC)ccc2O1 (stereo not drawn)
  Vaccinia Venus: -2%
  VACV mCherry inh: -6%
[33] OCCC1CN(Cc2cccn2-c2ncccn2)CCN1CCc1ccccc1 (stereo not drawn)
  Vaccinia Venus: -3%
  VACV mCherry inh: -2%
[34] COCCn1nnnc1C(c1ccc(O)c(OC)c1)N1CCc2ccccc2C1 (stereo not drawn)
  Vaccinia Venus: -5%
  VACV mCherry inh: .
[35] CCOc1ccc(S(=O)(=O)NC(C)C(=O)NC2CCCC2)cc1 (stereo not drawn)
  Vaccinia Venus: -16%
  VACV mCherry inh: i
[36] Cc1cc(C)c(C)c(S(=O)(=O)Nc2ccc(C(=O)N3CCCC3)cc2)c1C
  Vaccinia Venus: -19%
  VACV mCherry inh: -29%
[37] Cn1c2ccccc2c2c(C(=O)N3CCC4(CC3)OCCO4)cn(C3CCCCC3)c(=O)c21
  Vaccinia Venus: -18%
  VACV mCherry inh: -25%
[38] C[C@H]1O[C@@H](O[C@H]2CC[C@@]3(C)C(CC[C@]4(C)C3C=CC3=C5CC(C)(C)CC[C@]5(CO)[C@H](O)C[C@]34C)[C@]2(C)CO)[C@H](O)[C@@H](O[C@@H]2O[C@H](CO)[C@@H](O)[C@H](O)[C@H]2O)[C@H]1O (stereo partly drawn)
  Vaccinia Venus: -14%
  VACV mCherry inh: i
